Menin-MLL FL inh = qHTS Assay for Inhibitors Targeting the Menin-MLL Interaction in MLL Related Leukemias: Competition With Fluorescein Labeled MLL-derived Peptide; 290,000 tested, under 10 active; AID 1766, 2009; FP activity change, % at 61.4 µM; Fluorescence polarization, fluorescein-MLL peptide displacement from menin; inconclusive = falling polarisation curve, or a change in total fluorescence; inactive = total fluorescence flat and polarisation flat or rising; no compound was filed as active; the % refers to the polarisation; negative = inhibition;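 also: % of control where 0% means no effect; inhibitors lower the polarisation; unlabelled MLL peptide was the positive control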
CtBP-E1A blk = qHTS Assay for Inhibitors of the CtBP/E1A Interaction; hit rate 0.49% among 340,000; CtBP / adenovirus E1A interaction (AlphaScreen); AID 651724, 2012; AlphaScreen GST-E1A/His-CtBP binding, 1536-well; hits give low values; control for the full effect not named in the record; activity change, % (no concentration beside the values); in the data active means activity change below about -65%; inconclusive means about -30% to -65%; inactive means above about -30%; also: % is scaled to controls: 0 for no effect and ±100 for the full control effect; compound concentration not given in the record
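Steps: dispense buffer (Tris pH 8.0, NaCl 300 mM, TCEP 1 mM, BSA, Tween 20); add 5X protein mix (GST-E1A, His-CtBP, 125 nM each); pin 23 nL compound; 2 h at 37 °C, dark; add 5X beads (50 ug/mL); 1 h; read.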
TRPV1 PAM = HTS Assay for Compounds that Act as Potentiators of the Vanilloid Receptor 1. potentiation, % at 8.33 µM. hit rate 0.02% among 320,000. TRPV1-expressing cells, Fluo-8 calcium influx, capsaicin EC20 potentiation; host cell line not named in the record; control for the full effect not named in the record; active means potentiation above 80%; inconclusive means 30% to 80%; inactive means below 30%; also: 0% is about no effect
Target sequence (Q8NER1 whole entry, looked up): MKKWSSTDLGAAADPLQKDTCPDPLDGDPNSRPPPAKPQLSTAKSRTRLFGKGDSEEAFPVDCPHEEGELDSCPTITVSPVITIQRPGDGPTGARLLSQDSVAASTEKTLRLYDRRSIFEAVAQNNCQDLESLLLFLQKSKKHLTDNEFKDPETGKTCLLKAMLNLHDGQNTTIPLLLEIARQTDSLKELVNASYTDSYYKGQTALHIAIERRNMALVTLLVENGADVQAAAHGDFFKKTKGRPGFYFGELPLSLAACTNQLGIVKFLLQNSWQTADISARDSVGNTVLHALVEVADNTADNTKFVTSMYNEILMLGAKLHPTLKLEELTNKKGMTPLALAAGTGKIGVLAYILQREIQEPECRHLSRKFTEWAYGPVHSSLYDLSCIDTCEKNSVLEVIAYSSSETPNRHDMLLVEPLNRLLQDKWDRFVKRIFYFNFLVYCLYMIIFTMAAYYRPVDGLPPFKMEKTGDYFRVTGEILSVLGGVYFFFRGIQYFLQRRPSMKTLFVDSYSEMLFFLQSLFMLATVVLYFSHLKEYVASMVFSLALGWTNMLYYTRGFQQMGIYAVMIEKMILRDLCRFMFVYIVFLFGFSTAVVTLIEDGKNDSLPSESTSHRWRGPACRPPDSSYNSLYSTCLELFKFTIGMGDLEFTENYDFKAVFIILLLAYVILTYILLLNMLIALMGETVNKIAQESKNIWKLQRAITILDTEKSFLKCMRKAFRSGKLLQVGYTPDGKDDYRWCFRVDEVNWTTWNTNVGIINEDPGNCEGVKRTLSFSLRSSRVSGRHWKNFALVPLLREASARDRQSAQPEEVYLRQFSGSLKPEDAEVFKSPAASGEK
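Fluo-8 calcium influx in TRPV1-expressing cells, kinetic read (ex 480/em 520 nm). Compound added and read 3 min for agonist activity, followed by capsaicin at EC20 final and 2 min further read for enhancement.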
Sfp PPTase inh = qHTS Assay for Inhibitors of Bacillus subtilis Sfp phosphopantetheinyl transferase (PPTase); Biochemical Sfp PPTase activity, qHTS; Potency, µM, inactives show max response, negative = inhibition, actives largely listed as inhibitors; hit rate 3.5% among 310,000; AID 1490, 2009; active = well fitted inhibition curve with a large enough effect; inconclusive = small, poorly fitted or top-dose-only effect, or another doubt; inactive = no such curve, though single readings can be large or run the other way;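 also: the enzyme is Sfp with the accession as filed and its product quenches rhodamine fluorescence; potency is read from the fitted curve at half-maximal effect; 0% = enzyme reaction without inhibitor and -100% = no enzyme wells; top concentration of the series not given in the record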
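Step 1, compound plus 15 nM Sfp-PPTase, 15 min, room temperature. Step 2, add rhodamine-CoA (5 uM) and BHQ-2-YbbR (12.5 uM). Step 3, read 525/598 nm fluorescence at 0 and 30 min.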
gsp antag = qHTS for Antagonists of gsp, the Etiologic Mutation Responsible for Fibrous Dysplasia/McCune-Albright Syndrome: qHTS; Potency, µM (series often up to 76.9 µM), inactives show at the highest dose activity change, negative = inhibition, most hits filed as inhibitors; gsp-mutant cells, cAMP HTRF, 30 min; control for the full effect not named in the record; hit rate 0.4% among 340,000; AID 624288, 2012; active = falling curve of any shape with a large fitted effect; inconclusive = falling curve, mostly with a smaller effect; inactive = flat or rising curve; cell line not stated here;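 also: intracellular cAMP measured with PDE inhibitor Ro 20-1724 present during compound exposure; potency is read from the fitted curve at half-maximal effect; % is scaled to controls: 0 for no effect and ±100 for the full control effect; nearly all actives have a fitted effect of over 65% in size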
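HTRF cAMP read-out (cAMP-d2 plus anti-cAMP antibody-K in lysis buffer, 30 min RT). Before lysis, cells are exposed to compounds with […] for 30 min at 37C in DPBS containing Ca/Mg, BSA and Tween 20.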
gsp agonist = qHTS for Agonist of gsp, the Etiologic Mutation Responsible for Fibrous Dysplasia/McCune-Albright Syndrome: qHTS; gsp mutant cells, cAMP HTRF, 30 min; control for the full effect not named in the record; Potency, µM (top dose mostly 76.9 µM), for inactives: top-dose activation (cAMP increase), hits mostly activators; hit rate 0.13% among 340,000; AID 624287, 2012; active = well fitted activation curve with a large enough effect; inconclusive = small, poorly fitted or top-dose-only effect, or another doubt; inactive = no such curve, though single readings can be large or run the other way; cell line not stated here;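 also: phosphodiesterase inhibitor Ro 20-1724 added with compounds to block cAMP breakdown; potency is read from the fitted curve at half-maximal effect; nearly all actives have a fitted effect of over 60% in size; about a fifth of the inactives were tested at one dose only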
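Cells stably selected in G418 were plated at 2000/well, grown 16-24 hr, then given compounds in DMSO with the PDE inhibitor […] (300 uM solution added) for 30 min at 37C; cAMP was read by HTRF.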
ClpP mod = qHTS Assay for Activators of ClpP; purified B. subtilis ClpP, FRET peptide cleavage, 20 min; AID 651965, 2013; hit rate 1.9% among 340,000; ATP-dependent Clp protease proteolytic subunit (Bacillus subtilis (strain 168)), P80244; Potency, µM (titrated, usually from 57.5 µM), for inactives: at the highest dose activity change, negative = active; active = well fitted falling curve with a large enough effect; inconclusive = small, poorly fitted or top-dose-only effect; inactive = no such curve, though single readings can be large or run the other way; also: potency is read from the fitted curve at half-maximal effect; the source files actives as falling curves though it sought activators and does not explain the sign; nearly all actives have a fitted effect of over 65% in size; many hits overshoot -100%
Target sequence (P80244 whole entry, looked up): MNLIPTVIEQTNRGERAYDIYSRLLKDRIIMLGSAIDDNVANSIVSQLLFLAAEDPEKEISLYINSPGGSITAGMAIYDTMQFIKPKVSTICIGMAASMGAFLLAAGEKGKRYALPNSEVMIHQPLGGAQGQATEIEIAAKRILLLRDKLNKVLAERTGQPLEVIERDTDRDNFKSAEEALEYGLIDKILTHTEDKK
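FRET quenching reversal measured ClpP activation: 10 microg/mL B. subtilis ClpP at pH 8 with the FRET-FV decapeptide, read at 430 nm after 320 nm excitation. The 20-min minus 0-min signal was scaled between DMSO/no-enzyme wells and ADEP (5.8 microM final).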
An asterisk follows results filed as active; ? = inconclusive; · = not tested or not shown; [ ] = dose if it differs, or a comment.

mol	Menin-MLL FL inh	CtBP-E1A blk	TRPV1 PAM	Sfp PPTase inh	gsp antag	gsp agonist	ClpP mod
CN(C)c1ccc(N/C(=N\S(=O)(=O)c2cccs2)c2ccccc2)cc1	-3.6	·	-19	-1%	-21%	-2%	-0.6%
O=C(C[N+]1(CC#Cc2ccccc2)CCOCC1)c1ccccc1	-2.7	·	-3	-4%	5%	-1%	-0.9%
CC(=O)c1sc(NC(=O)c2ccc(F)c(F)c2)nc1C	1.7	6	-9	0%	5%	0%	-0.8%
Cc1ncoc1C(=O)Nc1ccccc1-c1ccccc1	-1.7	4	9	8%	15%	-16%	-0.7%
O=C(N/N=C/c1ccccc1[N+](=O)[O-])c1ccc2c(c1)OCCO2	2.9	0	-23	5%	-11%	13%[15.4 µM]	·
CC(=O)C1=C(O)C(=O)N(C)C1c1ccccc1[N+](=O)[O-] (configuration not stated)	-2.4	-6	5	71µM*	2%	22%	·
C/C(=N\NC(=O)c1ccc(Cl)cc1)c1ccccn1	-0.8	?	-6	8%	-9%	3%	·
Cc1cc2cc3c(cc2nc1SCC(=O)O)CCC3	3.2	0	13	-7%	-15%	40%[15.4 µM]	0.2%
CC(=O)Nc1ccc(NC(=O)c2ccnn2C)cc1	·	-3	·	·	2%	?	·
Nc1cc([N+](=O)[O-])ccc1OCc1ccccc1	·	6	·	·	-5%	-8%	0.0%
Cc1ccc(C2=Nc3ccccc3SC(c3cccc([N+](=O)[O-])c3)C2)cc1 (configuration not stated)	-0.7	·	-13	8.9µM*	1%	18%	1.5%
O=C(Nc1ccccc1)c1ccncc1	-0.8	7	7	3%	6%	?	0.7%
O=C(Nc1ccc2c(c1)OCO2)c1cccc2c1C(=O)N(Cc1cccnc1)C2	4.1	?	-2	-1%	-16%	15%	0.8%
O=C(NCC1CCCCC1)c1cccnc1	-5.6	0	-3	9%	0%	17%	-2.4%
CCOc1cc(/C=N/Nc2ncnc(Cl)c2N)ccc1O	-0.6	?	7	-76%	-4%	-15%	-4.8%

The list continues.
mol	Menin-MLL FL inh	CtBP-E1A blk	TRPV1 PAM	Sfp PPTase inh	gsp antag	gsp agonist	ClpP mod
CSCCC1NC(=O)C(C(C)=Nc2ccccc2)=C1O (configuration not stated)	·	9	·	·	-5%	17%	1.9%
COc1ccc(CN2CCC(CNC(=O)NC3CCCCC3)CC2)cc1	0.7	0	4	13%	9%	-3%	4.8%
O=C(C1=C[C@@H](c2csc3ccccc23)C[C@@H](OCc2ccc(CO)cc2)O1)N1CCN(Cc2ccc3c(c2)OCO3)CC1	-0.1	-9	26	10%	-20%	·	-4.6%
Cc1cccc(N(CC(=O)NCCSCc2ccccc2)S(C)(=O)=O)c1	-1.7	·	2	15%	-2%	22%	0.8%
CC1(C)CC(=O)C=C(N2CCOCC2)C1	-2.3	-13	6	14%	·	-9%[15.4 µM]	·
O=C(NCc1ccccc1)c1cc(S(=O)(=O)N2CCOCC2)ccc1F	9.1	-2	-7	13%	8%	-18%	-22%
Cc1nc2c(sc3nc(N4CCOCC4)c4c(c32)CC(C)(C)OC4)c(-c2ccccc2)c1C(=O)O	30	3	·	9%	13%	6.3µM*	-6.8%
COCCSc1nnc(NC(=O)c2ccc(NC(C)=O)cc2)s1	1.8	15	8	-2%	-4%	28%	·
COc1ccc(NC(=O)COC(=O)CCC2CCCC2)c(OC)c1	·	6	·	·	2%	?	0.5%
Cc1cc(OCc2cc(C(=O)N(C)C(C)c3ccccn3)no2)cc(C)c1Cl (configuration not stated)	-1.3	3	-3	2%	?	?	2.1%
CNc1snc(C)c1C(=O)OC(C)C(=O)Nc1ccccc1 (configuration not stated)	·	·	13	·	-1%	-27%	-6.1%
CC1CCCC(C)N1S(=O)(=O)c1ccc(NC(=O)CNCC2CCCO2)cc1 (configuration not stated)	1.4	3	-1	-2%	1%	-60%[inhibitor]	-0.2%
CN(C(=O)COC(=O)c1cccc(F)c1)c1ccccc1	1.7	17	7	8%	13%	0%[15.4 µM]	-0.2%
Cc1c(F)cccc1NC(=O)c1ccc2c(c1)CCN2S(C)(=O)=O	0.1	-7	15	25%	-11%	?	·
CCCNC(=O)Cn1nc(C(F)(F)F)c2c1CCCC2	-1.3	4	10	18%	-10%	-21%	-0.2%

Compound profiles, from the list above:
Entry for Cc1c(F)cccc1NC(=O)c1ccc2c(c1)CCN2S(C)(=O)=O : Menin-MLL FL inh: 0.1; CtBP-E1A blk: -7; TRPV1 PAM: 15; Sfp PPTase inh: 25%; gsp antag: -11%; gsp agonist: ?; ClpP mod: ·
Entry for COCCSc1nnc(NC(=O)c2ccc(NC(C)=O)cc2)s1 : Menin-MLL FL inh: 1.8; CtBP-E1A blk: 15; TRPV1 PAM: 8; Sfp PPTase inh: -2%; gsp antag: -4%; gsp agonist: 28%; ClpP mod: ·

Copied from the entries so far, 2 compounds:
mol	Menin-MLL FL inh	CtBP-E1A blk	TRPV1 PAM	Sfp PPTase inh	gsp antag	gsp agonist	ClpP mod
CNc1snc(C)c1C(=O)OC(C)C(=O)Nc1ccccc1 (configuration not stated)	·	·	13	·	-1%	-27%	-6.1%
CC1CCCC(C)N1S(=O)(=O)c1ccc(NC(=O)CNCC2CCCO2)cc1 (configuration not stated)	1.4	3	-1	-2%	1%	-60%[inhibitor]	-0.2%

More compounds follow.
mol	Menin-MLL FL inh	CtBP-E1A blk	TRPV1 PAM	Sfp PPTase inh	gsp antag	gsp agonist	ClpP mod
CCc1ccc(NC(=O)CCC(=O)N2CCSc3ccccc32)cc1	1.1	0	13	-4%	?	-48%[inhibitor]	1.4%
CC1=C(C)C(=O)N(C(C)CCc2ccccc2)C1=O (configuration not stated)	-12	·	-11	15%	2%	-32%[inhibitor]	1.3%
Cc1ccc(Cl)cc1N1CCN(CC(=O)NC2CCCc3ccccc32)CC1 (configuration not stated)	8.7	-10	-6	?	4%	3%	0.9%
COc1cc(CNn2cn[nH]c2=S)ccc1OCC(=O)NC(C)(C)C	-3.5	1	-15	-19%	-3%	-16%	·
Cc1ccc(C(=O)N2c3ccccc3OCC2C)cc1 (configuration not stated)	4.8	5	5	5%	-2%	33%	1.9%
Cc1ccc(C(=O)Nc2ncccc2O)o1	·	-16	4	·	1%	-14%[15.4 µM]	·
O=C(NCc1cccnc1)Nc1ccccc1	-1.1	·	-2	2%	1%	0%	-2.4%
COc1ccc(NC(=O)CCNS(=O)(=O)c2cccc3nsnc23)c(OC)c1	-2.6	-7	5	-10%	5%	3%[15.4 µM]	·
O=C1c2cccc3cccc(c23)C(=O)N1c1ccncc1	-1.5	-2	0	8%	-6%	-36%[inhibitor]	10µM*
Cc1cccc(C=NOCCc2ccccc2)n1	·	15	·	·	7%	-28%	-1.5%
O=C(NCc1nnnn1-c1ccc(Cl)cc1)c1ccc2c(c1)OCO2	·	-3	·	·	·	0%	-5.9%
Cc1cccn2c(=O)c(C=O)c(Nc3ccccc3)nc12	8.6	7	27	7%	11%	-2%[15.4 µM]	·
O=C(COc1ccc2ccccc2c1)N1CCCC1	1.6	-1	11	-13%	-5%	-25%	-4.4%
COc1ccc(CCN(CC(=O)NC2CCCC2)C(=O)CCC(=O)Nc2cc(C)on2)cc1OC	-1.2	-1	15	-1%	-6%	-1%	2.5%
NS(=O)(=O)c1cccc(NC(=O)Cc2ccc(Cl)c(Cl)c2)c1	-0.1	6	-9	6%	-6%	-5%[15.4 µM]	-2.6%

Later entries:
mol	Menin-MLL FL inh	CtBP-E1A blk	TRPV1 PAM	Sfp PPTase inh	gsp antag	gsp agonist	ClpP mod
COc1ccc(-c2nnc3sc(CN4C(=O)c5ccccc5C4=O)nn23)cc1	-0.3	2	0	-10%	4%	?	-1.4%
Cc1ccc(CCNC(=O)C2CCCN(c3nc4ccccc4o3)C2)cc1 (configuration not stated)	-1.2	-1	2	8%	-16%	-1%	-2.1%
CCOC(=O)/C(=C/c1c(C)n(C)c2ccc([N+](=O)[O-])cc12)C(C)=O	-1.7	-14	-4	-10%	-8%	1%	·
COc1ccc(C(=O)NNC(=O)Cc2nc3ccccc3n2C)cc1	·	-24	·	·	5%	10%[15.4 µM]	0.3%
Cc1ccc(C(=O)Oc2cc(-c3ccccc3)no2)cc1	0.4	4	-11	0%	6%	11%	1.7%
Cc1ccc(/C=N\NC(=O)COc2ccc(C)cc2[N+](=O)[O-])cc1	-1.7	2	-4	3%	-2%	?	·
NC(=O)c1c(N)sc(=S)n1-c1ccccc1	-0.5	10	0	6%	3%	-12%	-0.5%
CC(=O)N1CCN(c2ccc(NC(=O)c3ccc(Cl)cc3)cc2)CC1	2.0	-1	-3	23%	9%	-23%	-1.8%
CC(=O)Nc1ccc(S(=O)(=O)NCc2ccc(C)n2C)cc1	-0.7	-15	-2	-4%	·	-1%[15.4 µM]	·
O=C(Nc1ccc2c(c1)OCO2)C1CCCN(S(=O)(=O)Cc2ccccc2)C1 (configuration not stated)	-2.9	-1	10	2%	-5%	0%	-1.5%
CCOc1cccc(-c2c(C(=O)N/N=C(\C)c3cccnc3)nnn2-c2nonc2N)c1	·	8	4	7%	-8%	16%	-0.4%
CCN1C(=O)/C(=C\N2CCCc3ccccc32)SC1=S	2.4	1	2	-10%	-2%	-4%	0.6%
C=CC(C)n1c(Br)nc2c1c(=O)[nH]c(=O)n2C (configuration not stated)	11	-13	-1	7%	2%	-6%	-8.8%
Cc1ccccc1C#N	·	3	2	·	1%	·	-2.2%
Fc1ccccc1NC(=S)NCCc1cccc(Cl)c1	·	4	-9	7%	-2%	?	-1.3%
COc1ccc(NC(=O)CN(c2ccc(F)cc2)S(=O)(=O)c2ccccc2)c(OC)c1	-2.0	-2	1	5%	-11%	-20%	-1.7%
